RecA splice inh = Mtb RecA intein splicing inhibition; P9WHJ3; cell-free RecA intein splicing, fluorescence; inhibition, %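 (about 9 µM by stock and volumes)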; 290,000 tested, 0.75% active; in the data active = inhibition above about 30%; inconclusive = no clear call, values can overlap the other calls;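 also: 0% = vehicle wells and 100% = reference inhibitor control wells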
Target sequence (P9WHJ3 whole entry, looked up, canonical isoform): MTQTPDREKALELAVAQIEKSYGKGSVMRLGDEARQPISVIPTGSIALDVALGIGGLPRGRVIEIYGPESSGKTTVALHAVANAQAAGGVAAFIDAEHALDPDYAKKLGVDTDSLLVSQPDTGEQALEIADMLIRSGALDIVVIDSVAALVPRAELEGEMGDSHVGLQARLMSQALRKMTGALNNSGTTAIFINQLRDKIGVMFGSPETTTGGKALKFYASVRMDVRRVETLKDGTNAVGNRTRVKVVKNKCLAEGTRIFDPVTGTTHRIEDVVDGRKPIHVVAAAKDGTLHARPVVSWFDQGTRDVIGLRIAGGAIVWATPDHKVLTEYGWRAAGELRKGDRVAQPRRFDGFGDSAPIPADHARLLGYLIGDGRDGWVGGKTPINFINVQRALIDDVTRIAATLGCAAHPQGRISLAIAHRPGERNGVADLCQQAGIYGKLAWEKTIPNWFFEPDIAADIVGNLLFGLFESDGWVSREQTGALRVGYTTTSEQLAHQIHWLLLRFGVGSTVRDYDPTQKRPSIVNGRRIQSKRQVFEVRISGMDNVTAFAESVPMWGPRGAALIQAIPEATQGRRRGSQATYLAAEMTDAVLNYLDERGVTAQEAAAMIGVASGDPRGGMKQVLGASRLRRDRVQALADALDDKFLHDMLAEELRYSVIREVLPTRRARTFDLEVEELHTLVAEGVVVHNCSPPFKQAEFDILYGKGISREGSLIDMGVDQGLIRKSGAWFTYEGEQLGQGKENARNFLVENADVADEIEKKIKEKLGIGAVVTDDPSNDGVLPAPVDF
YopH inh = YopH (Yersinia) phosphatase inhibition. 140,000 tested, 0.16% active. inhibition, %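 (about 10 µM by stock and volumes)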. AID 898. fluorescence Ex485/Em525;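 active = inhibition of 50% or more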;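 also: controls were vehicle for no effect and minimum signal wells for full effect; inactives centre near -20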
Mtb H37Rv = M. tuberculosis H37Rv growth inhibitors, H37Rv strain (AID 1626). M. tuberculosis H37Rv growth inhibition; higher % means a stronger effect. inhibition, % at 10 µM; hits with a dose series show IC50 in µM. 220,000 tested, 0.95% active;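 active = confirmed in a dose series; inconclusive = inhibition above 80% but not taken into the dose series; inactive = below 80% or under 30% at every dose of the series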;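 also: bacteria incubated seven days before Alamar blue readout; 0% = bacteria only wells and 100% = bacteria with antibiotic wells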
Mtb betalactam = beta-lactam sensitization of Mtb H37Rv; M. tuberculosis H37Rv growth with meropenem, percent inhibition; hits of this screen are not shown here; inhibition, % at 25 µM; 330,000 tested, 0.27% active;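 active = about 74% or more and at least 40 points above the plate without the antibiotic, then above 30% in a dose series; inconclusive = first-round hits that could not be retested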;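 also: growth measured after seven days incubation then overnight dye step; 0% = bacteria only wells and 100% = bacteria with antibiotic; twin plates without the antibiotic show which effects depend on it; some results filed as inactive read as strong as hits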
Arbovirus inh = antivirals against arbovirus infection | inhibition, % at 10 µM | 200,000 tested, 0.37% active | arbovirus infection cell-based antiviral screen | AID 1251;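 active = inhibition from about 30%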;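 also: bluetongue infection of BSR cells; cell survival read as ATP light after 72 h; 0% = infected wells without compound and 100% = uninfected wells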
Arbovirus inh repeat = recorded beside Arbovirus inh, whose call it bears; inhibition, %; measured here: 10K subset replicate screen; many hits read low in the repeat;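 first of two repeat runs on a subset; 0% = infected and 100% = uninfected wells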
Starred values were filed as active, the others as inactive; ? = inconclusive; / = no result given.

A first look:
SMILES	RecA splice inh	YopH inh	Mtb H37Rv	Mtb betalactam	Arbovirus inh	others
FC(F)(F)c1cccc(NC(=S)Nc2ccc(Cl)cc2Cl)c1	5.6	-35	?	95	-28
COc1ccc(C(=O)N2CCN(c3ccc(C)c(C)c3)CC2)cc1OC	0.5	4	/	-2	6	Arbovirus inh repeat=9
CC(=O)Oc1ccc(-c2nc3c(C)cccc3c(=O)o2)cc1	-3.7	/	/	5	/
CCC1CO/C(=C(\C(Cl)=C(Cl)Cl)[N+](=O)[O-])N1 (stereo not given)	-0.5	/	0%	-11	-6
CC(OC(=O)CCCC(=O)Nc1ccccc1)C(=O)c1ccccc1 (stereo not given)	-1.6	/	/	-8	/
Cc1c(OC(C(=O)O)c2ccccc2)ccc2c(-c3ccccc3)cc(=O)oc12 (stereo not given)	-0.3	/	-1%	-2	/
CCn1ncc([N+](=O)[O-])c1C(=O)NC1CCCCC1	-0.5	/	4%	4	-6
O=C(CCS(=O)(=O)c1ccc(F)cc1)Nc1nnc(-c2ccc(F)cc2)o1	-3.0	/	/	86	/
COc1cccc(CNCCc2c[nH]c3ccccc23)c1OCc1ccc(F)cc1	3.2	-12	29%	90	-43
Cc1ccc(-n2ncc3c(NCCCn4ccnc4)ncnc32)c(C)c1	1.8	/	0%	0	-2	Arbovirus inh repeat=-5
COc1ccccc1N1C(=O)S/C(=C\c2ccc(C)s2)C1=O	-0.5	/	/	2	/
Cc1ccn(CCC(=O)NC2CCCc3c2cnn3-c2cccc(C)c2C)n1 (stereo not given)	0.8	/	/	9	/
COCc1cc(C)nc(SCC[N+](C)(C)CC(=O)Nc2cccc(C)c2)c1C#N	-6.8	/	-5%	-3	9
CC1CCN(C(=O)CC(NC(=O)c2ccccc2Cl)c2ccccc2)CC1 (stereo not given)	1.1	/	/	-8	/
O=C(N/N=C\CCc1ccccc1)c1ccco1	3.3	-24	1%	3	-6

This part in full, repeating the preview:
SMILES	RecA splice inh	YopH inh	Mtb H37Rv	Mtb betalactam	Arbovirus inh	others
FC(F)(F)c1cccc(NC(=S)Nc2ccc(Cl)cc2Cl)c1	5.6	-35	?	95	-28
COc1ccc(C(=O)N2CCN(c3ccc(C)c(C)c3)CC2)cc1OC	0.5	4	/	-2	6	Arbovirus inh repeat=9
CC(=O)Oc1ccc(-c2nc3c(C)cccc3c(=O)o2)cc1	-3.7	/	/	5	/
CCC1CO/C(=C(\C(Cl)=C(Cl)Cl)[N+](=O)[O-])N1 (stereo not given)	-0.5	/	0%	-11	-6
CC(OC(=O)CCCC(=O)Nc1ccccc1)C(=O)c1ccccc1 (stereo not given)	-1.6	/	/	-8	/
Cc1c(OC(C(=O)O)c2ccccc2)ccc2c(-c3ccccc3)cc(=O)oc12 (stereo not given)	-0.3	/	-1%	-2	/
CCn1ncc([N+](=O)[O-])c1C(=O)NC1CCCCC1	-0.5	/	4%	4	-6
O=C(CCS(=O)(=O)c1ccc(F)cc1)Nc1nnc(-c2ccc(F)cc2)o1	-3.0	/	/	86	/
COc1cccc(CNCCc2c[nH]c3ccccc23)c1OCc1ccc(F)cc1	3.2	-12	29%	90	-43
Cc1ccc(-n2ncc3c(NCCCn4ccnc4)ncnc32)c(C)c1	1.8	/	0%	0	-2	Arbovirus inh repeat=-5
COc1ccccc1N1C(=O)S/C(=C\c2ccc(C)s2)C1=O	-0.5	/	/	2	/
Cc1ccn(CCC(=O)NC2CCCc3c2cnn3-c2cccc(C)c2C)n1 (stereo not given)	0.8	/	/	9	/
COCc1cc(C)nc(SCC[N+](C)(C)CC(=O)Nc2cccc(C)c2)c1C#N	-6.8	/	-5%	-3	9
CC1CCN(C(=O)CC(NC(=O)c2ccccc2Cl)c2ccccc2)CC1 (stereo not given)	1.1	/	/	-8	/
O=C(N/N=C\CCc1ccccc1)c1ccco1	3.3	-24	1%	3	-6
O=C(CN1CCN(C(=O)c2c(F)cccc2F)CC1)Nc1ccccc1F	/	-19	-8%	-10	1
Cc1ccc(S(=O)(=O)NC(C)(C)CN2CCNCC2)cc1	0.1	/	/	0	/
O=C(NC(Cc1cnc[nH]1)C(=O)O)c1ccccc1 (stereo not given)	-2.2	/	-1%	-1	-5
Cc1cccc2sc(N(CCCN(C)C)C(=O)c3ccc(Cl)s3)nc12	3.5	/	3%	-7	-10
CCCCCCCCN=C1NC(=O)CS1	0.1	-55	16%	-13	16
Cc1ccc(S(=O)(=O)N(C)C)cc1NC(=O)COC(=O)c1ccc2c(=O)n3c(nc2c1)CCC3	-2.0	/	/	3	/
Cc1cc(/C(N)=N/OC(=O)c2ccccc2Cl)no1	0.0	/	6%	2	/
CCn1c(SCc2ccc([N+](=O)[O-])cc2)nnc1C(C)NC(=O)c1ccccc1Br (stereo not given)	-0.2	-10	-3%	-3	1
Cn1c(O)c(N=NC(=O)c2ccccc2O)c2ccccc21	-0.3	/	-1%	5	1
Cc1cc(C)c2c(CC(=O)NNC(=O)c3ccccc3)coc2c1	-0.5	/	/	-7	/
O=C(NCCCN1CCOCC1)c1cc(Cl)ccc1Cl	1.0	/	/	-1	/
Cc1ccc(CCNC(=O)CCSCc2ccc(Cl)cc2)cc1	-1.1	-9	4%	9	-1
O=C(CN1C(=O)c2ccccc2S1(=O)=O)NCCSc1ccccc1	1.4	-3	-4%	-11	0
CCOc1ccc(CN2CCN(Cc3ccon3)CC2CCO)cc1 (stereo not given)	1.0	/	5%	-8	15
O=C(c1cc(F)ccc1F)C1CCCN(Cc2ccc3nonc3c2)C1 (stereo not given)	2.4	/	13%	4	13
COc1cc(/C=N/Nc2nc3c(c(=O)n(C)c(=O)n3C)n2Cc2ccccc2)ccc1OC(=O)c1ccco1	-3.4	6	6%	-1	9
COc1ccc(-n2c(Cc3cccn3C)nnc2SCC(=O)Nc2ccc(C(C)=O)cc2)cc1	0.3	-29	-5%	6	3	Arbovirus inh repeat=1
Cc1ccc(O)c(N=Nc2ccccc2)n1	7.5	/	-9%	2	/
O=C(c1cnc2ccccc2n1)N1CCN(c2ccc(C(F)(F)F)cn2)CC1	1.5	/	-4%	2	/
CCc1cccc(CC)c1NC(=O)COC(=O)C1(c2ccc(Cl)cc2)CCCC1	2.6	-20	-8%	6	6
Cc1nn(-c2nnc(C)c(=O)[nH]2)c(C)c1SCC(=O)Nc1ccc(C(C)C)cc1	-1.2	-15	-1%	-15	17
CC(O)CNc1nc2sc3c(c2c(=O)n1Cc1ccco1)CCCCC3 (stereo not given)	-3.3	/	4%	47	/
COc1ccc(O)c(CN2CCCC(C(=O)c3sccc3C)C2)c1 (stereo not given)	-1.6	/	-6%	2	14
CCCOC(=O)c1cc(-c2ccc(/C=C3/C(=O)N(C)C(=O)C(C#N)=C3C)o2)ccc1Cl	/	-30	/	11	/
CC12CCC(C(=O)n3c1nc1ccccc13)C2(C)C (stereo not given)	-2.0	-47	-2%	8	-4

Part of the list above in order of heavy-atom count, high to low.
SMILES	RecA splice inh	YopH inh	Mtb H37Rv	Mtb betalactam	Arbovirus inh	others
CCc1cccc(CC)c1NC(=O)COC(=O)C1(c2ccc(Cl)cc2)CCCC1	2.6	-20	-8%	6	6
Cc1ccc(S(=O)(=O)NC(C)(C)CN2CCNCC2)cc1	0.1	/	/	0	/
O=C(NCCCN1CCOCC1)c1cc(Cl)ccc1Cl	1.0	/	/	-1	/

Next section
SMILES	RecA splice inh	YopH inh	Mtb H37Rv	Mtb betalactam	Arbovirus inh	others
CC1(OC(=O)C2CCCC2)C(=O)C=C2C=C(c3ccsc3)N(C3CC3)C=C2C1=O (stereo not given)	13	/	-7%	-12	/
O=C(CS(=O)(=O)c1ccc(F)cc1)Nc1nnc(-c2ccccc2Cl)o1	0.5	/	/	-12	/
COc1ccc(CNc2nc3nc(C)c(Cl)c(C)n3n2)cc1OC	-1.3	-1	-9%	-2	/
Cc1nc(SCC(=O)NCc2ccco2)[nH]c(=O)c1C	-1.9	-25	6%	7	-2
CC(C)(C)NC(=O)c1ccc2c(c1)N(CC(=O)NC1CCCC1)C(=O)C(C)(C)O2	1.2	/	/	-3	/
CCCCNC(=O)c1ccc(S(=O)(=O)c2ccc(Cl)cc2)c(NC(C)=O)c1	0.7	-17	0%	-7	0
CCOC(=O)C1(Cc2ccccc2)CCN(Cc2cn(CC(=O)OC)c3ccccc23)CC1	/	/	6%	12	10
CC1CC(C)CN(c2cc3c(cc2[N+](=O)[O-])C(=O)N(c2ccccc2)C3=O)C1 (stereo not given)	1.2	-45	-12%	-2	3
COc1cccc(CC(=O)Nc2sc3c(c2C(N)=O)CCCC3)c1	0.8	/	/	2	/
COC(=O)c1c(C)noc1-c1snnc1C	7.6	/	-5%	-3	/
COc1cc(CN2CCNC(=O)C2CC(=O)N2CCCN(C(C)=O)CC2)cc(OC)c1 (stereo not given)	2.8	/	/	4	/
O=C(Nc1cccc2ccccc12)N1CCCN(c2c(Cl)cncc2Cl)CC1	2.3	/	-2%	/	/
COc1c(Br)cc([N+](=O)[O-])c(OC)c1C(=O)NC(=O)Nc1cc(Cl)cc(Cl)c1	3.8	/	-3%	-2	/
Cc1cccc(Cn2c(=O)oc3ccc(C)cc32)c1	2.5	/	/	0	/
CC(=O)Nc1ccc(S(=O)(=O)N2CCC(NC(=O)C(Cc3cccc(F)c3)NC(C)=O)CC2)cc1 (stereo not given)	-1.4	/	/	-8	/
COc1ccccc1CNC(=O)COC(=O)c1cc(S(=O)(=O)N2CCOCC2)ccc1Cl	-2.0	/	/	-5	/
CCOc1ccc(NC(=O)c2nsc(Cl)c2Cl)cc1	1.3	/	6%	-7	-11
CCCNC(=O)Cn1c(=O)n(C)c2ccccc21	3.3	/	-6%	-4	/
Cc1ccc2nc3cc([N+](=O)[O-])cc([N+](=O)[O-])c3cc2c1	/	/	?	/	-25
Cc1cc(C)nc(N2CCC(C(=O)NNC(=O)c3ccc(Cl)cc3)CC2)n1	0.2	/	-7%	-6	/
O=S(=O)(c1cccc(C(F)(F)F)c1)N1CCN(C(=S)NC2CC2)CC1	1.1	-28	-1%	-1	7
CCCOc1ccc(C2C(C(=O)c3ccc(C)o3)=C(O)C(=O)N2CCN2CCOCC2)cc1OC (stereo not given)	0.3	-24	0%	-6	-1
COc1ccc(C/C(N)=N/OC(=O)c2ccc(Cl)cc2)cc1	0.0	/	-10%	-1	9
CCc1ccc(C(=O)NNC(=O)c2ccc3c(=O)n4c(nc3c2)CCC4)cc1	0.1	/	/	-2	/
CC(=O)Nc1cc(NC(C)=O)ncn1	-2.0	/	-8%	4	/
COc1ccc(C2NC(=O)c3ccccc3O2)cc1 (stereo not given)	-0.1	/	/	-2	/
O=[N+]([O-])c1ccc(Oc2ccc(/C=N/O)cc2)nc1	/	/	/	14	-1
CCC1CCCCN1C(=S)NC(=O)c1cc(S(=O)(=O)N2CCOCC2)ccc1C (stereo not given)	-0.3	/	2%	3	/
O=C(N/N=C\c1ccc[nH]1)C1COc2ccccc2O1 (stereo not given)	-4.0	/	-6%	6	/
Cc1cccc(CSc2nc3[nH]ncc3c(=O)[nH]2)c1	0.2	/	2%	-8	-33
Cc1sc2nc(CN3CCOCC3)nc(Cl)c2c1C	-1.9	-12	2%	-3	8
O=C(OCCN1CCOCC1)C(c1ccccc1)c1ccccc1	1.3	-21	-8%	-4	0
COc1ccc(CCNC(=O)C2CC3Cn4c(nc5ccccc54)C3N2C)cc1 (stereo not given)	1.3	/	-1%	-6	/
CC1(C)CC(=O)c2cc3c(nc2C1)CC(C)(C)CC3=O	-2.9	-24	-1%	-3	2
CSC1=NC(=O)/C(=C\c2cccc3ccccc23)S1	-0.2	/	1%	-8	8
N/C(=N\OC(=O)Cc1ccccc1[N+](=O)[O-])c1cccc(Br)c1	-0.4	/	68%	48	-4
CCCCn1c2c(c(=O)n(C)c1=O)C(c1ccc(OC)cc1)N1CCCCCC1=N2 (stereo not given)	9.9	-31	1%	-6	-21
CC(=O)C1=C(C)OC(N)=C(C#N)C1c1cccc2ccccc12 (stereo not given)	-0.5	/	-10%	1	/
CCN(CCCNC(=O)c1ccc(N2CCCC2=O)cc1)c1cccc(C)c1	-1.9	-8	1%	3	-14
CN(C)/C=N/c1ncc(C(=O)c2ccc(Cl)cc2)s1	-3.0	-30	-4%	-9	-11
Cc1ccc(N(CC(=O)NCCc2ccc(F)cc2)S(=O)(=O)c2ccc(Cl)c([N+](=O)[O-])c2)c(C)c1	23	-19	2%	5	-33
COc1cccc(C2CCCN2Cc2nc(CCC(C)C)no2)c1 (stereo not given)	2.8	/	4%	-6	3
O=C(N/N=C/c1coc2ccccc2c1=O)c1cc(Br)c(O)c(Br)c1	2.5	/	/	8	/
Cc1cc(N2CCOCC2)cc(C)[n+]1[O-]	1.0	-39	-5%	-16	5	Arbovirus inh repeat=2
COc1ccc(NC(=O)/C(C#N)=C/c2ccc(OCc3ccccc3F)cc2)cc1	0.2	-9	9%	3	7
CC(=O)c1ccc(NS(=O)(=O)c2c(C)cc(C)cc2C)cc1	-2.0	/	5%	3	3
CC(C)Cc1cc(CNC(=O)C2CCC(=O)N(CCc3cccc(F)c3)C2)on1 (stereo not given)	0.2	/	/	-2	/

Screening results (PubChem)

This is a subset (hit frequency here may not be typical).
